Assay outcomes as filed in PubChem.
HNF4A DNA FP: change in binding of human HNF4 alpha to DNA; HNF4a-FITC DNA binding, fluorescence polarization, 1 h; activity change, % at 10 µM; 0.3% of 360,000 active; in the data active = activity change above about 30%, passing the limit was not always enough;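 note: controls were the assay level and a saturating level of protein; the project sought stronger binding though the title names inhibitors; some compounds called inactive have numbers as strong as hits; positive values seem to mean higher polarization but the record does not say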
Target sequence (P41235 whole entry, looked up): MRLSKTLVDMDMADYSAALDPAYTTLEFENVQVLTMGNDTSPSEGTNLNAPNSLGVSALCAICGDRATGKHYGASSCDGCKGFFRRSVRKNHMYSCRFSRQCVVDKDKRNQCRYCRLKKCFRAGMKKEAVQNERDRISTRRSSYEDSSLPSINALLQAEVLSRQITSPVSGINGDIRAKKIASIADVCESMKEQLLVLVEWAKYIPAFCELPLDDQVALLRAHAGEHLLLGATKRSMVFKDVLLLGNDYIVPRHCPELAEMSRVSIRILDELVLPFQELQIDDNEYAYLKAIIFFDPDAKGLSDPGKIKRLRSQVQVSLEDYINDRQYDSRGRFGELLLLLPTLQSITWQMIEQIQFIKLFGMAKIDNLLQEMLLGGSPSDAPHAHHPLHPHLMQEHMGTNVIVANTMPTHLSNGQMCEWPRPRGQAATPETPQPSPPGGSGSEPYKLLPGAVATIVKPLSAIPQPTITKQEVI
FGF22 binding: shifts melting point of recombinant human FGF22; Q9HCT0; recombinant FGF22 thermal shift, SYPRO orange fluorescence; percent of sucrose octasulfate shift, DMSO zero; calls only at 9.99 µM; 1.5% of 340,000 active; AID 651658;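 active = melting point raised past a set limit in the mean and every replicate; inconclusive = no clear call; three in four hits are not shown here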
Ecoli growth: inhibitors of Escherichia coli growth; OD600, 23 h; active compounds read low; OD600 absorbance (test concentration not listed); 0.21% of 330,000 active; AID 1053175;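 active = OD600 absorbance below the run mean of sample wells minus 3.6 SD, in any replicate, cut at about 0.56 in these data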;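 note: stock transfer was 300 nL into about 60 µL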
rRNA inh HTS: inhibitors of bacterial rRNA selective over humanized ribosomes; 1.6% of 350,000 active; E. coli WT GFP vs humanized-ribosome RFP mutants, fluorescence, 24 h; active compounds read low; DMSO median 0, no signal -100; GFP signal change (wild-type ribosome), % (concentration not given with the values); AID 720706;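 active = significant combined selectivity score with lowered wild-type GFP, culture density cut under 30%, mutant RFP and density less affected; inactive = any of these conditions unmet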; note: one replicate is shown; some compounds called inactive have numbers as strong as hits
ALR H2O2 inh: human ALR oxidase inhibition via reduced H2O2; purified ALR, DTT oxidation, H2O2 HRP-luminol luminescence; inhibition, % (test concentration not listed); 3.8% of 290,000 active; P55789; AID 485317;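 active = mean and each replicate at 75% or more; inconclusive = only one of the two met; inactive = neither met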;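 note: stock transfer was 7.5 nL into about 7.5 µL; 0% = neutral wells and 100% = wells with inactivated enzyme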
Vif TR-FRET: HIV-1 Vif–A3G interaction blockers – biochemical, TR-FRET, GST-Vif 1-94, biotin-A3G peptide, dose response retest, primary screen (AID 1117319); 0.57% of 260,000 active; one-dose inhibition, %; IC50 in µM for titrated hits; TR-FRET GST-Vif / biotin-A3G peptide binding; higher % means a stronger effect; test concentration not given here; strong numbers were not always called active;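 active = above the screen mean plus three standard deviations and confirmed in dose response; inconclusive = results disagree or hit not tested in dose response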;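 note: Vif residues 1-94 fused to GST binding biotinylated APOBEC3G peptide 110-148; 0% = full assay without inhibitor and 100% = GST in place of GST-Vif; retest series ran down from 100 µM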
MLL AF4-AF9 inh: inhibitors of human MLL-AF4/AF9 interaction. AID 651704. inhibition, % at 10 µM. P42568. AlphaScreen, biotin-AF4 peptide binding to FLAG-AF9. 0.47% of 350,000 active;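 active = every replicate reaching a set inhibition limit, whatever the replicate mean, cut at about 25% in these data; inconclusive = mean inhibition reaches that limit but some replicates miss it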;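 note: 0% = plate neutral control median and 100% = total signal loss; the record names both 10 and 1 µM as test concentration; the first replicate is given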
Target sequence (P42568 whole entry, looked up): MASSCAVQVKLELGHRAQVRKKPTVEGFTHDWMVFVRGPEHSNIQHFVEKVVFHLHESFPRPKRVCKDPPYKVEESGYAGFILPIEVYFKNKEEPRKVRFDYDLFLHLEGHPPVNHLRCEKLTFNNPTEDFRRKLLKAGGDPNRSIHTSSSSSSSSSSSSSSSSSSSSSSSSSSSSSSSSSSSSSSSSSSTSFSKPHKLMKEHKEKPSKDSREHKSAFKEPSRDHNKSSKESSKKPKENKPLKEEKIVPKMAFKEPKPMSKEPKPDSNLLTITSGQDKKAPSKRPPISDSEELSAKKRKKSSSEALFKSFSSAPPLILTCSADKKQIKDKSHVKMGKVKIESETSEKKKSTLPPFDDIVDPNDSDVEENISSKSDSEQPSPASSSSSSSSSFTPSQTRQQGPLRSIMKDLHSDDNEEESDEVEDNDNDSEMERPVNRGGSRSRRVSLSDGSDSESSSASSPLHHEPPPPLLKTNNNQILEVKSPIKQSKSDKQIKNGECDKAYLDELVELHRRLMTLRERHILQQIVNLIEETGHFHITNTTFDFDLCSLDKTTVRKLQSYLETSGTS
rRNA inh HTS OD600: also measured in rRNA inh HTS; calls as there; OD600 change, %; measured here: OD600 growth;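 optical density of the mix in the first replicate; 0 = DMSO median and -100 = no signal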
rRNA inh HTS RFP: further read-out of rRNA inh HTS, marked with its call; RFP signal change, %; measured here: RFP humanized mutant strains;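 first replicate; 0 = DMSO median and -100 = no signal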
The depositor's hits bear a star; i = inactive; ? = inconclusive; . = no result given; & = joins results of further samples.

SMILES	HNF4A DNA FP	FGF22 binding	Ecoli growth	rRNA inh HTS	rRNA inh HTS OD600	rRNA inh HTS RFP	ALR H2O2 inh	Vif TR-FRET	MLL AF4-AF9 inh
CCOc1cc(C(=S)N2CCOCC2)ccc1OC(=O)/C=C/c1ccc(OC)c(OC)c1	0.1	.	0.715	.	.	.	-8.6	4.0%	.
CCc1ccc(Nc2nnc(SCC(=O)NCCN3C(=O)CSC3=O)s2)cc1	1.4	.	0.715	2.3	1.0	-0.6	-10.1	.	0.0
COc1ccc(CN2C(=O)C(C)N(C(=O)c3c(F)cccc3F)c3ccccc32)cc1 (stereo not drawn)	0.5	i	0.666	-10.7	-20.7	-1.3	.	-7.3%	-0.7
COc1ccc(OC)c(CN2CCN(CC(=O)Nc3ccccc3C(=O)NC3CC3)CC2)c1	2.5	i	0.698	7.6	12.0	-3.1	-1.2	-6.8%	3.0
O=C(C[C@@H]1C=C[C@@H](NC(=O)c2ccc3c(c2)OCO3)[C@@H](CO)O1)NC1Cc2ccccc2C1	.	i	.	-1.5	5.3	-2.1	.	.	-2.9
O=C(N[C@H]1CC[C@H](CCNC(=O)C2CCCC2)O[C@@H]1CO)c1ccncc1	.	i	.	-1.7	1.9	-1.0	.	.	-0.5
CCOc1ccc(OCC)c(NC(=O)CN(C)S(=O)(=O)c2cnc[nH]2)c1	-2.4	.	0.719	.	.	.	-46.8	6.2%	.
CC(C)C#Cc1cnc2c(c1)C(=O)N([C@@H](C)CO)C[C@@H](C)[C@H](CN(C)C(=O)Nc1ccc(F)cc1)O2	.	i	.	0.8	-5.6	-0.1	.	.	-13.3
CCCN(c1ccc(C)cc1)c1nc(=O)c2cccnc2s1	1.5	i	0.663	.	.	.	53.9	1.4%	1.6
O=C(N/N=C/c1sc(N2CCCCC2)nc1-c1cccs1)C1CC1	10.9	.	.	-18.0	-22.7	4.7	38.5	.	23.2
CC(C)CNC(=O)COc1ccccc1[N+](=O)[O-]	-4.7	.	0.677	.	.	.	-0.3	.	.
Cc1cc(C)nc(NS(=O)(=O)c2ccc(NC(=O)COc3ccccc3)cc2)n1	1.8	.	0.674	.	.	.	98.9*	-11.3%	.
CC(C)CC#Cc1cnc2c(c1)C(=O)N([C@H](C)CO)C[C@H](C)[C@@H](CN(C)C(=O)Nc1cccc(F)c1)O2	.	i	.	-4.7	-1.6	4.9	.	.	2.1
C[C@@H]1CCCCO[C@H](CN(C)C(=O)Nc2ccc(F)cc2)[C@H](C)CN([C@@H](C)CO)C(=O)c2cc(NC(=O)c3ccccc3)ccc2O1	.	i	.	-2.8	-5.4	2.0	.	.	0.2
Cn1cccc1Cc1nnc(SCC(=O)NCC2CCCO2)n1C (stereo not drawn)	3.4	i	0.707	.	.	.	-11.1	.	1.3
Cc1ccc(S(=O)(=O)N2[C@@H](c3ccc(Cl)cc3)C(C(=O)O)=CC[C@H]2c2cccc(C)c2)cc1	1.0	i	.	-21.5*	-9.5*	-7.4*	21.2	.	-1.0
NC(=O)CSc1cn(CCNC(=O)c2cccs2)c2ccccc12	-3.2	i	0.752	-0.1	3.8	-8.0	97.7*	.	-4.4
Cc1cc(N/N=C/c2ccc(Cl)cc2Cl)nc(NCc2ccccc2)n1	0.4	i	.	-11.0	-12.8	19.7	-9.4	.	12.3
O=C(NNC(=O)c1cccnc1)NC12CC3CC(CC(C3)C1)C2	1.8	i	0.679	2.3	5.9	2.1	25.9	2.0%	-7.0
COc1cc(OC)c(OC)cc1CN(C)C(c1ccccc1)c1nnnn1-c1ccccc1C (stereo not drawn)	-2.4	.	0.735	.	.	.	.	-4.8%&-0.5%	.
CCOC(=O)C1(Cc2cccc(OC)c2)CCCN(S(=O)(=O)N(C)C)C1 (stereo not drawn)	4.0	i	0.688	7.2	1.4	-3.3	.	.	-1.2
O=S(=O)(Nc1cccc2ccccc12)c1cccc2nonc12	1.2	i	0.709	-27.4*	-8.6*	-1.7*	17.2	.	1.7
O=C(NC1CC2CCCC(C1)N2C(=O)NC1CCCCC1)c1ccccc1 (stereo not drawn)	1.8	.	0.686	.	.	.	.	-5.7%	.
CSc1ccccc1NC(=O)c1ccccc1	1.8	.	0.603	4.1	2.4	-3.4	-7.7	-1.2%	-0.2
O=C(NC1CCC1)[C@@H]1[C@@H](CO)[C@@H]2Cn3c(ccc(-c4ccc(F)cc4)c3=O)[C@@H]2N1Cc1ccccn1	.	i	.	-0.1	-0.3	-0.1	.	.	-3.4

The list goes on.
SMILES	HNF4A DNA FP	FGF22 binding	Ecoli growth	rRNA inh HTS	rRNA inh HTS OD600	rRNA inh HTS RFP	ALR H2O2 inh	Vif TR-FRET	MLL AF4-AF9 inh
CCOC(=O)C1=C(O)CSC1=Nc1cccc2ccccc12	3.3	i	.	16.3	6.7	-2.8	-4.5	-5.4%	-0.5
Cc1ccc(C(=O)OCC(=O)c2c(N)n(C)c(=O)n(C)c2=O)cc1S(=O)(=O)N1CCOCC1	-2.2	i	0.675	.	.	.	0.1	-1.0%	1.1
OCCN1CCN(c2nc3ccccc3nc2-c2ccccc2)CC1	4.3	i	0.691	-1.5	3.8	1.4	-40.4	.	6.6
Cc1ccc(S(=O)(=O)N(C)c2ccc(OCC(=O)OCC(=O)N(CC#N)c3ccccc3)cc2)cc1	-1.0	i	0.662	1.8	5.0	1.1	-18.6	-3.8%	-11.0
CC1CCCC(N2CCN(C(=O)c3ccccc3F)CC2)C1 (stereo not drawn)	1.0	i	0.668	6.7	6.7	-2.8	-5.9	.	-2.3
S=C(Nc1ccc(Br)cc1Cl)Nn1cnnc1	-1.7	i	0.644	-11.1	-4.6	0.0	18.0	-2.2%	-1.8
Cn1c(N)c(C(=O)COC(=O)/C=C/c2ccc(Cl)c(Cl)c2)c(=O)n(C)c1=O	-1.2	i	0.701	-0.9	12.2	1.5	.	-3.3%	-2.2
COc1ccc(CC(=O)Nc2ccc(C(N)=O)cc2)cc1	2.6	i	0.67	7.5	7.8	-1.6	-2.9	15.2%	-0.7
Cc1ccc(N2CC(C(=O)Nc3ccc(C)c(S(=O)(=O)N(C)C)c3)CC2=O)cc1 (stereo not drawn)	-3.9	i	0.695	-19.1	8.6	1.1	-8.1	.	-1.7
C=CCCC(=O)N1C[C@H]2CON(C)[C@H]2C[C@H]1c1cccc(Br)c1	-1.6	i	.	18.2	11.3	0.5	.	-2.1%	-1.0
COC(=O)[C@H]1C[C@@]2(O)CN(S(=O)(=O)c3ccc(C)cc3)C[C@@]2(OC(=O)NC2CC2)C[C@H]1C(=O)OC	2.6	i	.	2.7	-5.5	1.5	.	3.0%	-0.6
CC(C)n1cc(CN2CCC(Oc3ccc(C(=O)N4CCCC4)cc3)CC2)cn1	-3.4	i	0.734	18.5	13.3	-1.4	-8.3	13.1%	0.2
Cc1cc(C)c(S(=O)(=O)N2CCOC2CNC(=O)C(=O)NCCN(C)C)c(C)c1 (stereo not drawn)	-0.3	i	0.677	-2.1	-1.3	-0.9	-0.9	.	7.8
COc1ccc(N2CCN(C(=O)c3cc(=O)c4cc(Cl)ccc4o3)CC2)cc1	0.0	i	0.678	-7.3	-7.2	-0.9	5.6	-4.0%	-4.1
CO[C@@H]1CN(C)C(=O)c2cc(NS(=O)(=O)CC(F)(F)F)ccc2OC[C@@H](C)N(C)C[C@H]1C	.	i	.	-2.2	-2.6	-1.0	.	.	-2.0
C[C@@H]1CCCCO[C@H](CN(C)C(=O)Nc2ccc(C(F)(F)F)cc2)[C@H](C)CN([C@@H](C)CO)C(=O)c2cc(NS(=O)(=O)c3ccccc3)ccc2O1	.	i	.	1.3	-2.8	1.7	.	.	0.0
O=C(COC(=O)c1ccc2ccccc2c1)NCc1ccccc1	2.0	i	.	-0.3	10.0	-1.8	.	3.3%	-2.0
O=C(CSc1nc2scc(-c3ccccc3)c2c(=O)[nH]1)NC1CCCCC1	.	i	0.649	12.8	17.8	0.8	-3.6	.	0.1
O=C(NCc1ccco1)c1cc2n(n1)C(C(F)(F)F)CC(c1ccc(Cl)c(Cl)c1)N2 (stereo not drawn)	0.1	.	0.69	.	.	.	0.9	2.1%	.
Cc1n[nH]c2ccccc2c1=O	1.9	i	0.713	2.4	9.9	-4.2	.	-5.3%	-1.2
C[C@@H]1CN([C@H](C)CO)C(=O)c2cccc(NC(=O)NC3CCCCC3)c2O[C@@H]1CN(C)Cc1ccccc1	.	i	.	1.4	-1.1	1.7	.	.	-1.2
Cc1ccc(CSc2nc3ccccc3c(=O)n2C)cc1	0.7	i	0.697	5.4	12.6	-0.6	-2.5	-131.9%	-2.6
C[C@@H]1CN([C@H](C)CO)C(=O)c2cc(NC(=O)C3CC3)ccc2O[C@@H]1CN(C)S(=O)(=O)c1ccccc1	.	i	.	-0.3	-0.3	0.3	.	.	-0.2
O=C(CSc1cccc[n+]1[O-])NC1CCCCCCC1	-2.7	i	0.712	2.0	-5.9	-5.9	2.2	8.8%	0.4
O=C(Nc1ccc(Cl)cc1)Nc1nnc(CSCc2ccccc2Cl)s1	-3.3	i	0.728	4.6	4.9	-0.6	-5.7	24.1%	-2.1

Other compounds follow:
SMILES	HNF4A DNA FP	FGF22 binding	Ecoli growth	rRNA inh HTS	rRNA inh HTS OD600	rRNA inh HTS RFP	ALR H2O2 inh	Vif TR-FRET	MLL AF4-AF9 inh
O=C(O)c1cc2c(cc1NC(=O)c1ccccc1OC(F)F)OCCCO2	2.5	i	0.704	2.4	-8.4	0.8	.	.	-0.6
CC(=O)Nc1ccc(S(=O)(=O)NCC(=O)Nc2ccc3c(c2)OCO3)cc1	0.1	i	0.667	14.6	6.5	4.6	-4.7	2.9%	2.7
COc1cccc(C(c2sc3nc(C)nn3c2O)N2CCN(C(=O)c3ccco3)CC2)c1 (stereo not drawn)	-1.1	i	0.745	4.2	-0.3	0.5	-9.9	-1.6%	?
Cc1ccc(NNC(=O)c2c(C)noc2C)cc1Cl	-4.8	i	0.61	-9.4	-5.8	-7.6	53.0	-7.7%	-0.3
O=C(c1ccc(Cl)cc1)N1CCN(CCc2ccccn2)CC1	-4.5	i	0.65	0.2	2.8	-3.4	-5.2	7.3%	-3.5
Cc1ccc(S(=O)(=O)NC2(C(F)(F)F)NC(=O)N(c3ccc(F)cc3)C2=O)cc1 (stereo not drawn)	2.5	i	0.655	.	.	.	8.4	9.1%	2.1
CCOc1ccc(N=C2SCCCN2C(=O)c2c(CC)noc2C)cc1	1.9	i	0.716	0.0	-7.3	-1.4	-2.8	.	3.0
COC(=O)[C@@H]1[C@@H](CO)[C@@H]2Cn3c(ccc(-c4cccc(OC)c4)c3=O)[C@@H]2N1Cc1nccs1	.	i	.	-1.2	0.0	-0.8	.	.	-1.6
COc1ccccc1N1CCN(C(=O)c2onc(C)c2Cl)CC1	-0.6	i	0.706	1.6	-2.2	-0.8	70.3	.	-8.0
CC(C)OC(=O)C1CC=CCC1C(=O)Nc1ccc(Cl)cc1 (stereo not drawn)	0.8	.	0.767	.	.	.	-1.9	-0.3%	.
COCCNC(=O)Cn1cc2c(n1)CCCCC2	3.9	i	0.772	6.8	9.4	-0.3	-5.3	?	-2.9
O=C(Nc1cccc(Cl)c1)O/N=C\c1ccncc1	0.6	i	.	-13.8	-40.8	-3.8	-12.6	-7.2%	1.3
CC1CCCC(NC(=O)c2cc(S(=O)(=O)N3CCCCC3)ccc2Cl)C1C (stereo not drawn)	-1.9	i	0.693	-0.4	-10.4	-2.2	.	-2.2%	-2.0
CN(C)C(=O)C[C@@H]1C[C@H]2c3cc(NS(=O)(=O)c4ccccc4)ccc3O[C@H]2[C@@H](CO)O1	.	i	.	-0.6	-6.6	-0.8	.	.	-3.2
O=C(Nc1ccc2c(c1)Cc1ccccc1-2)c1ccc(Br)o1	0.2	.	0.768	.	.	.	-13.8	-26.6%	.

Some of the compounds tested. The share of hits here may be higher or lower than overall.
